MbtI inh: inhibitors of Mycobacterium tuberculosis siderophore enzyme MbtI; P9WFX0; purified MbtI enzyme, fluorescence intensity read-out; inhibition, %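 (about 17 µg/mL by stock and volumes)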; actives 0.89% (n = 100,000); AID 493033;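 active = above 50% in both replicates, above 80% if mildly self-fluorescent; inactive = the rest, strongly fluorescent compounds included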;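 note: 0% = mean of negative and 100% = mean of positive controls; one replicate is shown; some compounds called inactive have numbers as strong as hits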
Target sequence (P9WFX0 whole entry, looked up): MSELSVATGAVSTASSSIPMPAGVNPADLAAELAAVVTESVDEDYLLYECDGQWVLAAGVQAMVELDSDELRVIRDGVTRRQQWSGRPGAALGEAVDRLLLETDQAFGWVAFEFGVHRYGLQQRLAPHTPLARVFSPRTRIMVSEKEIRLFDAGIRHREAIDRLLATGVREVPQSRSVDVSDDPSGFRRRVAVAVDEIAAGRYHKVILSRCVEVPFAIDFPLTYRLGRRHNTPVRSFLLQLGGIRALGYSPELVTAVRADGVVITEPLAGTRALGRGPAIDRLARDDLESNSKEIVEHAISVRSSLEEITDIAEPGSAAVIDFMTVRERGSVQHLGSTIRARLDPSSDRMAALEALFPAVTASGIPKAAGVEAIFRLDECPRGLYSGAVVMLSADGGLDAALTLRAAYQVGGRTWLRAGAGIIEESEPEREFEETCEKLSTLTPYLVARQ
MenB inh: Mtb MenB enzyme inhibition; inhibition, %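 (about 12 µg/mL by stock and volumes)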; MenB enzyme assay, absorbance read-out; some hits fall short of the stated cut; P9WNP5; actives 0.43% (n = 100,000);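 active = mean of two replicates above 30%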;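 note: 0% = no compound and 100% = wells with inactive enzyme; the first replicate is given; strong numbers were not always called active; inactives centre near -10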
Target sequence (P9WNP5 whole entry, looked up): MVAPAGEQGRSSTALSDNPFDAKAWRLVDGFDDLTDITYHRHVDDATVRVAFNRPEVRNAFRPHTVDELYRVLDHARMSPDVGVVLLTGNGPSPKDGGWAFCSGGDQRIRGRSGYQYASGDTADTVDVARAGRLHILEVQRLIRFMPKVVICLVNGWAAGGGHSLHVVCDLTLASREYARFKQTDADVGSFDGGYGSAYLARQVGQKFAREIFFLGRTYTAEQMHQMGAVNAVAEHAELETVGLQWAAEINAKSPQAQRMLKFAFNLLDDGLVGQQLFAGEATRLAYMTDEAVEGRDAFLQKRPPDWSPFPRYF
PV pol inh: poliovirus RNA polymerase inhibition; P03300; % elongation, % (compound at 16.7 µg/mL); AID 588519; actives 0.66% (n = 150,000); poliovirus polymerase elongation, fluorescence polarization; active compounds read low; in the data active = % elongation below about 90%; note: some results filed as inactive read as strong as hits
PV pol inh intensity: second read-out of PV pol inh, no call of its own (marks repeat the call); % elongation; measured here: total intensity read-out; formula for this scale not given here;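 total fluorescence in place of polarization; lower means less elongation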
The depositor's hits bear a star; i = inactive; . = no result given.

SMILES	MbtI inh	MenB inh	PV pol inh	PV pol inh intensity
CCN(C(=O)c1cnc2ccccn2c1=O)c1ccccc1C	3	-1	103	105
Cc1cc(COC(=O)c2ccc(C#N)cc2)no1	-4	6	99	99
O=C(CSCc1nc2ccccc2[nH]1)N1CCOCC1	-6	.	102	104
Cc1nc(Cc2nnc(SCC(=O)NCC34CC5CC(CC(C5)C3)C4)o2)cs1	3	-17	108	109
C=CCN1C(=O)c2ccc(C(=O)OCc3ncc(-c4ccccc4)o3)cc2C1=O	0	-2	102	112
COc1nc(OC)nc(-n2cnc(NC(=O)Nc3cccc(Cl)c3)n2)n1	.	0	108	113
S=C(N=P(c1ccccc1)(N1CCOCC1)N1CCOCC1)N1CCN(c2ccccc2)CC1	-8	-42	102	107
COc1ccccc1Oc1ccc(N/C=C/C(=O)c2ccc(C)o2)cc1	-5	-147	102	121
COC(=O)c1ccc(CNC(=O)CSC2=NCCS2)cc1	-9	-11	103	97
Cc1cccc(NC(=S)N2CCn3cccc3C2c2cccs2)c1 (stereo unspecified)	18	-39	100	96
CCN1C(=O)/C(=C/C=C/c2ccco2)C(=O)NC1=S	-2	-33	114	148
CCOC=C(C#N)C#N	31	-1	99	102
O=S1(=O)N=C2CCCCCN2C(c2ccccc2OCc2ccccc2)N1 (stereo unspecified)	-2	1	104	108
O=C(NCc1ccc(Cl)cc1)C1CCC(CNS(=O)(=O)c2ccc(Cl)cc2)CC1 (stereo unspecified)	-14	-2	103	104
CN=C1NC(=O)CC(C(=O)Nc2ccc3ccccc3c2)S1 (stereo unspecified)	11	-18	103	101

Ordered by heavy-atom count (high to low): some entries from above
SMILES	MbtI inh	MenB inh	PV pol inh	PV pol inh intensity
Cc1nc(Cc2nnc(SCC(=O)NCC34CC5CC(CC(C5)C3)C4)o2)cs1	3	-17	108	109
Cc1cccc(NC(=S)N2CCn3cccc3C2c2cccs2)c1 (stereo unspecified)	18	-39	100	96
COC(=O)c1ccc(CNC(=O)CSC2=NCCS2)cc1	-9	-11	103	97
CCOC=C(C#N)C#N	31	-1	99	102

Next part.
SMILES	MbtI inh	MenB inh	PV pol inh	PV pol inh intensity
COC(=O)c1cnc(NC2CCCCC2)c2ccccc12	109	-4	99	101
CCOC(=O)N1CCC(NC(=O)c2cc(C(=O)Nc3ccc(F)cc3F)ccc2CO)CC1	-5	3	101	103
CCOC(=O)/C(C#N)=N/Nc1cc(C(N)=O)c(Cl)cc1Cl	17	-115	100	100
COCC(C)Nc1nc(-c2ccc(OC)c(OC)c2)cs1 (stereo unspecified)	22	-53	103	108
CC1=NN(C(=O)c2ccc(Cl)cc2)C(C)(C)C1	-9	-4	102	109
CC(=O)Nc1ccc(-c2csc(N)n2)cc1	-6	-5	103	103
C[C@]12CC[C@H](O)C[C@H]1CC[C@@H]1[C@@H]2CC[C@]2(C)[C@@H](C3=CC(=O)OC3)CC[C@]12O	0	8	102	104
CCN1CCCC(N)C1 (stereo unspecified)	-4	8	104	104
COC(=O)c1cn(CC(=O)NCc2ccc3c(c2)OCO3)c2ccccc12	.	0	104	100
O=C(NCc1ccc(Cl)cc1)c1ccc2c(c1)N(Cc1cccc(F)c1)C(=O)CS2=O (stereo unspecified)	6	-10	102	104
O=C1S/C(=C\c2ccc3c(c2)OCO3)C(=O)N1Cc1ccc(F)cc1	0	8	101	103
Cc1ccc2nc(N(CCN(C)C)C(=O)c3ccco3)sc2c1	-1	8	102	106
O=c1[nH]c(=O)n(CCCO)c(O)c1N=Nc1c(Cl)cccc1Cl	15	-60	99	104
COCC(=O)Nc1ccc(S(=O)(=O)NC(C)(C)C)cc1	-5	5	102	104
Cc1cc(C)c(-n2nnnc2SCC(=O)Nc2nn(-c3ccccc3)nc2C(N)=O)c(C)c1	.	-8	102	105

Whole records from above. Screens in order: MbtI inh | MenB inh | PV pol inh | PV pol inh intensity
CCN1CCCC(N)C1 (stereo unspecified) across the screens: -4 | 8 | 104 | 104
COCC(C)Nc1nc(-c2ccc(OC)c(OC)c2)cs1 (stereo unspecified) across the screens: 22 | -53 | 103 | 108

Other structures.
SMILES	MbtI inh	MenB inh	PV pol inh	PV pol inh intensity
CCOC(=O)CCc1c(C)nc2ccc(Br)cn2c1=O	-4	0	102	99
CCOc1ccc(-n2cnnn2)cc1S(=O)(=O)NC1CC1	.	-21	103	106
O=c1c2[nH]c3ccccc3c2ncn1CCN1CCN(Cc2ccccc2)CC1	2	9	105	102
Cn1c(/C=C/N2CCOCC2)c(C(=O)c2ccc(Br)cc2)c(=O)n(C)c1=O	-7	-58	99	101
CN(Cc1ccco1)C(=O)C1CCCN1S(=O)(=O)c1cccc2nsnc12 (stereo unspecified)	1	-12	101	102
O=C(O)c1ccccc1N(Cc1ccccc1)C(=O)c1cccs1	0	.	102	102
CSc1nc2ccccc2n1CC(=O)N(c1ccccc1)C(C)C	-2	.	103	103
CCC(=O)NC(c1ccco1)c1c(OC(C)=O)ccc2ccccc12 (stereo unspecified)	-48	-2	103	107
Cc1ccc(C)n1-c1ccc(-c2nnco2)cc1	12	-14	104	94
Fc1cccc(-c2nc(-c3ccccc3)no2)c1	-25	-8	102	105
O=C(NC(OCc1ccccc1)(C(F)(F)F)C(F)(F)F)c1ccccc1	-8	-31	111	105
Nc1nc2ccccc2o1	6	-16	128	206
Cc1c(/C=C2\SC(=Nc3ccccc3)N(C3CCCC3)C2=O)c2ccccc2n1CC(N)=O	.	-60	101	108
C=C1CCC(O)C2(C)CCC3C(C)C(=O)OC3C12O (stereo unspecified)	4	2	99	102
O=C(CSc1nnc(-c2cccs2)n1Cc1ccco1)Nc1ccc2c(c1)OCO2	-22	8	100	103

Exported with two lines to a compound: entries from further up.
Every second line gives: MbtI inh	MenB inh	PV pol inh	PV pol inh intensity
Fc1cccc(-c2nc(-c3ccccc3)no2)c1
    -25	-8	102	105
CCOc1ccc(-n2cnnn2)cc1S(=O)(=O)NC1CC1
    .	-21	103	106
CSc1nc2ccccc2n1CC(=O)N(c1ccccc1)C(C)C
    -2	.	103	103
O=c1c2[nH]c3ccccc3c2ncn1CCN1CCN(Cc2ccccc2)CC1
    2	9	105	102
Cc1ccc(C)n1-c1ccc(-c2nnco2)cc1
    12	-14	104	94

Further compounds follow:
SMILES	MbtI inh	MenB inh	PV pol inh	PV pol inh intensity
Cc1ccc(-n2nc3c([n+]2[O-])CCc2nonc2-3)cc1	.	-18	102	96
O=S(=O)(Nc1ccccc1)c1cccc2cccnc12	-3	12	102	106
c1ccc2nc(Sc3ncn[nH]3)c(Sc3ncn[nH]3)nc2c1	.	-16	85*	90*
CCC(=O)Nc1ccc(NC(=O)c2ccc(-c3ccc(Cl)cc3)o2)cc1	-4	-1	102	101
O=C1c2cccc3cccc(c23)N1CO	10	-42	101	102
Cc1cc(/C=N/NC(=O)C(C)Oc2ccc(C#N)cc2)c(C)n1-c1nccs1 (stereo unspecified)	9	10	103	106
OCCCNc1ncnc2c1c(-c1ccccc1)cn2-c1ccccc1	1	-22	103	103
CCCCn1c(-c2ccc(OCC)cc2)cnc1NCc1cccc(Cl)c1	1	-19	100	100
COC(=O)C1(c2ccccc2)NC(c2ccc(O)cc2)C2C(=O)N(c3ccc4c(c3)OCCO4)C(=O)C21 (stereo unspecified)	-7	-39	104	103
Clc1ccc(-c2csc(-c3ccno3)n2)cc1Cl	-32	4	103	103
CC(C)N1C(=O)CN(NC(=O)c2cc3c(s2)CCCC3)C1=O	-2	-8	102	100
O=C(O)/C=C/c1ccc(OCc2cn3ccccc3n2)cc1	17	-18	95	101
Cc1nn(CC(C)C)c(Cl)c1C(=O)NC1CC1	-7	-17	104	109
Cc1occc1C(=O)N=Nc1cc(C(C)(C)C)c(O)c(C(C)(C)C)c1	-22	-42	99	99
CNc1ccc2c(c1)OCCO2	10	6	102	101

Molecules from the list above that have bromine:
SMILES	MbtI inh	MenB inh	PV pol inh	PV pol inh intensity
CCOC(=O)CCc1c(C)nc2ccc(Br)cn2c1=O	-4	0	102	99
Cn1c(/C=C/N2CCOCC2)c(C(=O)c2ccc(Br)cc2)c(=O)n(C)c1=O	-7	-58	99	101

The results go on:
SMILES	MbtI inh	MenB inh	PV pol inh	PV pol inh intensity
O=C(NC(C(=O)c1ccccc1)n1cnccc1=O)c1ccccc1 (stereo unspecified)	-7	-3	107	112
O=C1OC(c2ccccc2)=N/C1=C\N1CCCCC1	-9	-2	104	105
Cc1cc(C)c2c3c(sc2n1)C1(CCSCC1)C(C#N)=C(N)O3	-9	-13	99	101
CCSc1nnc2c3ccccc3ncn12	5	12	97	100
CNC(=S)NCc1ccc(Cl)cc1	-8	-3	98	103
Fc1nc(N2CCOCC2)c2c(c1Cl)Oc1ccccc1O2	6	-22	105	104
O=C(CC1(O)C(=O)N(CN2CCOCC2)c2ccccc21)c1ccccc1 (stereo unspecified)	2	-3	100	103
Nc1cccc(/C=C/C(=O)O)c1	-5	.	106	110
CN1C(=O)N(C)C2CC1N(C)C(=O)N2C	-14	-21	102	105
CCCN(CCC)S(=O)(=O)c1ccc2c(c1)C(=C(C)C)C(=O)N2	-18	-15	104	103
Cc1cccc(Nc2nc(-c3ccc(F)cc3)cs2)n1	.	-27	108	101
CCOC(=O)C1(O)CC(C)=NN1C(=O)c1cccc(Cl)c1 (stereo unspecified)	.	-11	107	99
Cc1nn(CC(=O)NC2CCCCCC2)c(=O)c2nn(-c3ccccc3)c(C)c12	-26	-8	102	105
Cc1ccc(NC(=O)CCc2nnc3ccc(NC4CCCC4)nn23)cc1	0	-6	102	104
CCCn1c(C)cc(C(=O)COC(=O)c2ccc(S(C)(=O)=O)cc2)c1C	2	-1	103	102
Cc1nccc(-c2cccc(N/N=C(\C#N)S(=O)(=O)c3ccccn3)c2)n1	7	2	105	106
CC1CCN(C(=O)CCNS(=O)(=O)c2ccc3c(c2)c(=O)n(C)c(=O)n3C)CC1	6	-2	99	103
CC(C)c1cc(NC(C)c2ccccc2)n2c(nc3ccccc32)c1C#N (stereo unspecified)	62	-49	104	102
CC(=O)N1C(=O)C2(OCCO2)c2ccccc21	5	-40	102	101
O=C1CCCN1CCCNc1ccc2nnc(CCC(=O)N3CCCCC3)n2n1	35	-16	102	102
COc1ccc(C(=O)C(C(c2ccccc2)N2CCOCC2)N2CCOCC2)cc1 (stereo unspecified)	2	-6	100	100
CCOc1ccc2c(c1)s/c(=N/C(=O)Nc1ccc(OC)cc1)n2C	7	-11	103	101
OC1CCCc2ccccc21 (stereo unspecified)	1	4	104	101
COc1cc(-c2cc(C#N)on2)ccc1OCc1ccccc1	.	-7	105	118
CC(C)CN(CC(C)C)c1nc(N)c(C#N)c(CC#N)c1C#N	-37	-10	104	103
O=C1NC(=O)C2CC=CCC12 (stereo unspecified)	-14	-23	103	103
CCOC(=O)c1c(C)oc2cc(Br)c(O)c(CN(C)C)c12	4	-21	104	99
CCn1cc(C(=O)NCC(OC)OC)c(=O)c2cc(S(=O)(=O)N3CCCC3)ccc21	6	3	101	102
CCCn1c(-c2ccc(F)cc2)cnc1SCC(=O)N1CCCCC1C (stereo unspecified)	15	-67	103	101
CCOc1ccc(C(=O)NC2CCCCC2)cc1	.	-18	108	103
O=C1CSC(=O)N1CCN=Cc1c(O)n(Cc2ccccc2)c(=O)c2ccccc12	6	-35	122	121
CNC(=S)Nc1cccc(C(=O)OC)c1	2	11	101	104
c1ccc(C2=Nn3c(nnc3-c3cnccn3)SC2)cc1	11	19	101	101
CCC(CC)NC(=O)c1cccc(OC)c1OC	-12	3	99	102
CN(C)/N=C/c1cn(-c2ccccc2)nc1-c1cccnc1	4	-33	107	112
CCSc1nc2c(c(=O)[nH]1)C(C(C)C)C(C#N)=C(N)O2 (stereo unspecified)	9	-28	101	102
COc1cc(C(F)(F)F)nc2ccc(C#CCOC(=O)c3ccccc3)cc12	0	5	106	112
CCCCc1c(O)cc(-c2ccccc2)n(Cc2ccccc2)c1=O	i	-27	105	110
CC(C)(C)c1ccc(-c2noc(-c3ccc4c(c3)CCO4)n2)cc1	1	2	102	99
CC(OC(=O)c1ccc2c(c1)S(=O)(=O)N=C1CCCCCN12)C(=O)NC1CC1 (stereo unspecified)	-5	-45	105	105
COc1ccc(C2NC(CC(C)C)(C(=O)O)C3C(=O)N(c4ccccc4OC)C(=O)C23)cc1 (stereo unspecified)	1	-25	101	95
CC(=O)N1CCC(C(=O)OCC(N)=O)(c2ccccc2)CC1	-6	7	.	.
O=S(=O)(Nc1ncccn1)c1ccccc1	-8	0	101	104
COc1ccc(CC(=O)Oc2ccc(F)cc2)cc1	-16	0	101	103
Cc1cccc(C)c1NC(=O)NC1CCc2ccccc21 (stereo unspecified)	4	0	104	97
CC1C(c2ccccc2)CC(C(=O)O)C1(C)C (stereo unspecified)	.	9	100	103
O=C(O)c1cc(C(=O)O)cc(N2C(=O)c3ccccc3C2=O)c1	-6	-8	102	100
CCNc1ccc(C(=O)O)cc1N	107	11	92	103
CCc1ccc2oc(-c3cc(N)cc(C)c3O)nc2c1	1	-37	101	99
CN(c1ccccc1)S(=O)(=O)c1cn(C)c(=O)n(C)c1=O	-7	6	101	105
Nc1c(C(=O)c2ccco2)oc2ccccc12	-22	-404	97	99
CCOC(=O)NC(=S)Nc1ccc(F)cc1F	7	-14	104	105
CCCc1nc(SCC(=O)N2CCCC2)c2ccccc2n1	-1	3	100	101
O=C(Nc1ccc2c(c1)oc1ccccc12)C1CC1	-3	-19	101	103
O=C1CCC(C(=O)N=c2sccn2Cc2ccc(Cl)cc2Cl)=NN1	21	-15	109	102
Cc1cc(NC(=O)c2sc3nc4c(cc3c2N)C2CCN4CC2)no1	-73	-38	102	104

Screens (PubChem BioAssay)
